MbtI inh = MbtI salicylate synthase inhibition; inhibition, %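 (about 17 µg/mL by stock and volumes)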; hit rate 0.89% among 100,000; purified MbtI enzyme, fluorescence intensity read-out;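 active = above 50% in both replicates, above 80% if mildly self-fluorescent; inactive = the rest, strongly fluorescent compounds included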;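 note: 0% = mean of negative and 100% = mean of positive controls; one replicate is shown; some compounds called inactive have numbers as strong as hits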
Target sequence (P9WFX0 whole entry, looked up): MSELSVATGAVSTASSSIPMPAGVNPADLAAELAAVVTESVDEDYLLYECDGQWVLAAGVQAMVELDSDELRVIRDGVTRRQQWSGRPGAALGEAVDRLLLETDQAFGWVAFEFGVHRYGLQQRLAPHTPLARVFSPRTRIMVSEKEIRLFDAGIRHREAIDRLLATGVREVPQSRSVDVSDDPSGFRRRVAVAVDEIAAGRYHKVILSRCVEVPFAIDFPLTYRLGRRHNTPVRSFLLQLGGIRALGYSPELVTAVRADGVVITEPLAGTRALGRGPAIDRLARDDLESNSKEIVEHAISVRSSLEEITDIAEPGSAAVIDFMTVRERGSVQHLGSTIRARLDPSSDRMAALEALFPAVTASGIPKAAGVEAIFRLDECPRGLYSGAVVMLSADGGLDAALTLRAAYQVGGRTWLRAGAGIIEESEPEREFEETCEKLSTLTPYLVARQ
An asterisk follows results filed as active. Not all compounds are listed; the hit share may differ from the screen's.

SMILES | MbtI inh
CN(C)c1ccc(-c2nc3cc(N)ccc3o2)cc1 | -68
N#CCCN1CCn2c1nc1ccccc12 | -4
COC(=O)c1cccc(NC(=O)C2(c3ccccc3)CCOCC2)c1 | -17
Cc1ccccc1Cc1c(C)nc2ncnn2c1C | -8
CC(Sc1cn(CCNC(=O)c2cccs2)c2ccccc12)c1ccccc1 (stereo not given) | 17
Cc1cc(C)n(C2=NS(=O)(=O)c3ccccc32)n1 | -6
Clc1ccc(Nc2nc(C3CC3)cs2)cc1 | 15
O=S(=O)(N1CCCCC1)N(CCO)Cc1ccccc1 | -9
Cc1nn(CC(=O)N(C)C)c(=O)c2ccccc12 | -8
CC(C)(C)c1ccc(S(=O)(=O)N2CCCCC2C(=O)O)cc1 (stereo not given) | -13
CN1CCc2c(nnn2-c2ccccc2)C1 | -9
CN(C1CC(C)(C)NC(C)(C)C1)S(=O)(=O)CC12CCC(CC1=O)C2(C)C (stereo not given) | -15
CC(=O)NC1(C(=O)NC2CCCC2)CCCCC1 | -12
C=CCN1Cc2ccc(C(=O)O)cc2C1 | -20
CCN(CC)c1ccc2c(c1)CCCN2 | -55
COc1ccc(S(=O)(=O)CCc2nnc(-c3ccncc3)o2)cc1 | -4
CC(C(=O)O)n1cnc2scc(-c3ccc(Br)cc3)c2c1=O (stereo not given) | -5
O=C(c1ccccc1)c1ccccc1Br | -2
CCOC(=O)c1sc2nc3c(cc2c1NC(=O)c1ccccc1)COC(C)(C)C3 | 23
CCOC(=O)c1c(N)sc2c1CC(C)(C)NC2(C)C | -2
C/C(=N\c1ccccn1)C1=C(O)c2ccccc2C1=O | -4
Cc1ccc(-c2c3c(=O)n(C)c(=O)n(C)c3c3c(C)cc(C)nn23)cc1 | -14
O=C1NC(=O)C2C1Sc1[nH]c(=O)sc1C2c1ccco1 (stereo not given) | -6
O=C(Nc1ccc2oc(-c3ccccc3)nc2c1)c1ccccc1 | -5
Cc1ccc(Nc2[nH]c(=O)c3ccccc3c2C(=O)c2ccncc2)cc1 | -4
Cc1nonc1-c1csc(N)n1 | -9
O=C(O)COc1ccc2nccnc2c1 | -23
O=C(Nc1c2c(nn1-c1cccc(Cl)c1)CS(=O)C2)c1cccc(Br)c1 (stereo not given) | -3
CC(=O)OC(Cn1nc(C)cc1C)c1ccccc1 (stereo not given) | -10
CCOc1cc(C#N)c(NC(=O)c2ccncc2)cc1OCC | 2
CCOC(=O)C1CCCN(C(=O)CCC2CCCCC2)C1 (stereo not given) | -3
O=C(O)c1ccccc1OCC(O)Cn1cnc2ccccc21 (stereo not given) | -11
OC1(C#Cc2ccccc2)CCN(Cc2ccccc2)CC1 | -9
O=C(Cn1nc(-c2ccccc2)c2ccccc2c1=O)Nc1ccc(O)cc1 | -18
NC1=NC(=O)CC(C(=O)O)S1 (stereo not given) | -1
O=C(NC(CO)C(=O)O)c1cncc(Br)c1 (stereo not given) | 1
O=C(O)CCCn1nc(-c2ccccc2)c2ccccc21 | -31
Nc1ccc2nc(CCc3nc4ccc(N)cc4s3)sc2c1 | -2
CCn1cc(C2=NCCO2)c2ccccc21 | -4
Cc1nc2c(ccc3nc(NC(=O)c4ccc(N5C(=O)CCC5=O)cc4)sc32)s1 | -19
COc1cccc2ccc(=O)[nH]c12 | -2
O=C(O)C1(c2ccccc2)CCOCC1 | 0
O=c1c2cc(NC(=S)NCc3ccccn3)ccc2nc2n1CCCCC2 | 2
COC(=O)Cn1nc2c3c(cccc31)C(=O)c1ccccc1-2 | 5
CC(=O)N1CCC2(CC1)C(C#N)=C(N)OC1=C2C(=O)CCC1 | -10
O=C(Cn1cnc2ccc(Br)cc2c1=O)OCc1ccccc1 | -5
O=C(NCCSc1ccccc1)c1cncc(Br)c1 | 1
O=C(Nc1ccc(Br)cc1F)C1CSC(c2ccncc2)=N1 (stereo not given) | -2

Shown with tabs: four of the compounds above
SMILES	MbtI inh
O=c1c2cc(NC(=S)NCc3ccccn3)ccc2nc2n1CCCCC2	2
COC(=O)Cn1nc2c3c(cccc31)C(=O)c1ccccc1-2	5
CC(=O)N1CCC2(CC1)C(C#N)=C(N)OC1=C2C(=O)CCC1	-10
O=C(Cn1cnc2ccc(Br)cc2c1=O)OCc1ccccc1	-5

Carrying on.
SMILES | MbtI inh
COc1ccc(C(NC(=O)c2ccccc2)c2ccc3cccnc3c2O)cc1 (stereo not given) | -20
Cc1ccc(S(=O)(=O)NCCSc2ncccn2)cc1 | 2
CC(C)C(NC(=O)C1CCCCC1)C(=O)Nc1ccncc1 (stereo not given) | -8
COC(=O)c1ccc(CS(=O)(=O)c2ccccc2)o1 | -18
CCCn1cc(C(=O)O)c(C)n1 | -4
CCC(=O)Nc1ccccc1C(=O)O | -17
O=C1C=C(OCc2ccccc2)CN1 | -5
O=C(O)COc1ccc(S(=O)(=O)NCCc2ccccc2)cc1 | -8
Cc1cccc(N(C)C(=O)c2coc(=O)c3ccccc23)c1 | -5
Cc1ccccc1N1C(=O)C(Oc2ccc(Cl)cc2)C1CNC(C)C (stereo not given) | -11
COc1cccc(NC(=O)CCSc2ccc3ccccc3n2)c1 | 16
COC(=O)CN1c2ccccc2NC2=C(C(=O)CC(C)(C)C2)C1c1ccco1 (stereo not given) | 6
CC1C(=O)OC2(c3ccc(Br)cc3)C(C)C(=O)OC12 (stereo not given) | -18
O=C(O)CCSc1nc2ccccc2s1 | 46
OCC1N=C(c2ccccn2)OC1c1ccccc1 (stereo not given) | -9
Cc1cccc(C(=O)Nc2sc3c(c2C(=O)N2CCCC2)CCC3)c1 | 9
CC(=O)NC1CCCc2c1[nH]c1ccc(C)cc21 (stereo not given) | -14
CC1CCN(S(=O)(=O)c2ccc3ncn(CC(=O)N(C)Cc4ccccc4)c(=O)c3c2)CC1 | -19
Cc1nn(-c2ccccc2C(=O)O)c(=O)c2ccccc12 | 0
N#Cc1c(NC(=O)CN2C(=O)C3CC=C(Cl)CC3C2=O)sc2c1CCC2 (stereo not given) | -2
CCOC(=O)c1[nH]nc(C(=O)c2ccccc2)c1-c1ccccc1 | -1
O=C(O)c1ccccc1-c1ccccc1C(=O)NCc1cccnc1 | -5
O=C1NC(=O)c2cc(NC(=O)C3CCCCC3)ccc21 | -5
CCOC(=O)c1cc(-c2ccc(Cl)cc2)no1 | -8

Some of these compounds in order of length of the SMILES, descending.
SMILES | MbtI inh
CCOC(=O)c1[nH]nc(C(=O)c2ccccc2)c1-c1ccccc1 | -1
O=C(O)c1ccccc1-c1ccccc1C(=O)NCc1cccnc1 | -5
O=C1NC(=O)c2cc(NC(=O)C3CCCCC3)ccc21 | -5
O=C(O)CCSc1nc2ccccc2s1 | 46

Next part.
SMILES | MbtI inh
Cn1nnnc1CN1CCOCC1 | -8
CC1CN(C(C)C)C(C)CC1OC(=O)c1ccccc1 (stereo not given) | -13
O=S(=O)(c1ccc(F)cc1)N1CCCC1 | -4
CC(C)COC(C(=O)O)(c1ccccc1)c1ccccc1 | -2
COC(=O)C1=C(O)CSC1=Nc1ccccc1 | 3
Nc1nnc(SCC(=O)n2c3ccccc3c3ccccc32)s1 | -13
CC(C)C1/C(=N/O)CC(c2ccccc2)NC1c1ccccc1 (stereo not given) | -12
CC(=O)Nc1ccc(C(=O)NCc2ccncc2)cc1 | -13
COc1nc(C)nc2c1sc(=S)n2C | -17
Cc1cc(SCC(=O)O)n2nc(C)c(-c3ccc(Cl)cc3)c2n1 | 4
CC1CN(C(=O)CCc2ccccc2)C(C)CN1C(=O)CCc1ccccc1 (stereo not given) | -9
CCOc1ccc(CCNCc2c(C)[nH]c(C)c2C(=O)O)cc1 | -7
O=c1[nH]c(SCc2ccccc2)nc2ccccc12 | 40
O=C(Nc1nc2c(ncn2C(CO)OC(CO)CO)c(=O)[nH]1)c1ccccc1 (stereo not given) | -7
OC(C#CCCN1CCCCC1)(c1ccccc1)c1ccccc1 | -2
Cc1cc(C)n(-c2nc3c(c(=O)[nH]c(=O)n3C)n2CC(O)COc2ccccc2C)n1 (stereo not given) | -23
CCC1CCCCN1CCCN (stereo not given) | 2
CC1(C)CC(=O)C(C2(O)C(=O)c3ccccc3C2=O)C(=O)C1 | -12
CCN(c1cccc(C)c1)C(C(=O)Nc1ccc2c(c1)OCCO2)c1ccccc1 (stereo not given) | 0
CN(Cc1ccccc1)S(=O)(=O)c1ncn[nH]1 | -9
CC1CN(C2CCN(CC3CC4C=CC3C4)CC2)CC(C)O1 (stereo not given) | -17
O=C(c1ccccc1)c1ccc2nc(Cl)c3nnnn3c2c1 | 37
CCC(=O)Nc1nc2ccccc2n1CCN1CCCC1 | -1
FC(F)(F)c1cc(-c2ccccc2)nc(NCCc2ccccc2)n1 | 22
O=C(NC1CC1)c1cc(=O)[nH]c2ccc(Br)cc12 | -12
CCOC(=O)CC1=Nc2ccccc2NC(=O)C1 | -7
CCC(Sc1ccccn1)C(=O)Nc1ccc(Cl)cn1 (stereo not given) | 22
Cc1cc(C)n(-c2n[nH]c(=O)c3ccccc23)n1 | -11
O=C(COc1ccccc1)Nc1ccc(-c2nc3ncccc3o2)cc1 | -93
O=C(Cc1ccccc1Br)N(CCCN1CCOCC1)Cc1cccs1 | -16
N#Cc1c(-c2ccc(F)cc2)noc1N | -4
Cc1ccc(C(C)C)c(OCc2nnc3c4cnn(Cc5ccccc5)c4ncn23)c1 | -6
Cc1nn2c(-c3ccccc3)csc2nc1=O | 11
O=C(CCOc1ccccc1)Nc1nccs1 | -5
Cc1ccc2nsnc2c1N(S(C)(=O)=O)S(C)(=O)=O | 5
CCOC(=O)c1cc(-c2ccc3c(c2)OCCO3)n[nH]1 | -7
CCn1cc(CNC(=O)CCc2ccc(OC)cc2)cn1 | -5
CCCCc1c(C)c2ccc(OC)c(/C(C)=N\O)c2oc1=O | -29
NCc1ccccc1-n1cccc1 | -9
CCOC(=O)N1CCCC1C(=O)O (stereo not given) | -13
CCN(CC)C(=O)c1ccc(Cn2cc(Cl)cn2)o1 | -4
Cc1[nH]c(C)c(C(=O)O)c1CNC1CCCCC1C (stereo not given) | -13
CC(C)(C)C(=O)Nc1ncnc2sc3c(c12)CCCC3 | 4
CCOc1ccccc1N1CCN(S(=O)(=O)c2cccs2)CC1 | -10
COc1ccc(N2CCN(C(=O)CNC(=O)Cn3c(C)cc4ccccc4c3=O)CC2)cc1 | -10
CC(Cc1c[nH]c2ccccc12)N1C(=O)CCC1=O (stereo not given) | -6
CCC(C)N1C(=O)C2C(C(=O)Nc3cccc(Cl)c3)C3C=CC2(O3)C1C(=O)NC1CCCCC1 (stereo not given) | -4
COc1ccc(NC(=O)C2(N3C(=O)CC3c3ccc(OC(C)C)cc3)CCCCC2)cc1 (stereo not given) | -5
CCCNC(=O)c1ccc(COc2ccc3ccccc3c2)cc1 | -7
COc1ccc(CCNC(=O)Cn2ccc3ccccc3c2=O)cc1OC | 4
CCOC(=O)C(C(=O)O)C1CCCCC1 (stereo not given) | -9
O=c1c2ccccc2nc2ccc(N3CCCC4CCCCC43)nn12 (stereo not given) | -11
c1ccc(-c2nnc(-c3cccs3)o2)cc1 | 31
C=CCNC(=O)c1cc(=O)[nH]c(=O)[nH]1 | -7
CC1=Nc2ccccc2N=C(NC(=O)C(C)N2C(=O)c3ccccc3C2=O)C1c1ccccc1 (stereo not given) | -7
Cc1ccc(NC(=O)C(C)NC(=O)C(c2ccccc2)c2ccccc2)cc1C (stereo not given) | -10
CC(C)(C)C(=O)CC(C)(O)c1ccc(Cl)cc1 (stereo not given) | -9
O=C(CNS(=O)(=O)c1ccccc1)Nc1c(-c2ccccc2)c2cc(Br)ccc2[nH]c1=O | 2
CC1=NOC(=O)C1C(c1cccc(Br)c1)c1c(C)[nH]n(-c2ccccc2)c1=O (stereo not given) | 98*
O=c1[nH]c2cc(S(=O)(=O)CCO)ccc2o1 | -5
Continuation:
SMILES | MbtI inh
O=C1CN(S(=O)(=O)CCOc2ccccc2)CC(=O)N1CCc1ccccc1 | -7
CC(C)CSc1ncnc2c1sc1nc3c(cc12)COC(C)(C)C3 | -9
COC(=NC1CCCCC1)C(O)c1c[nH]c2ccccc12 (stereo not given) | 3
O=C(CSCc1ccccc1Cl)NC1CCCC1 | -16
O=C(Cc1cccs1)Nc1cccc(C(=O)O)c1 | -18
CC(=O)Oc1ccc2oc(-c3ccccc3)c(C(N)=O)c2c1 | 48
Cc1cc2ncc(-c3ccccc3)nc2cc1C | -12
OCc1cnn(-c2ccccc2)c1-n1cccc1 | -20
CCC(=O)N1CC(=O)Nc2ccc(F)cc2C1c1ccccc1 (stereo not given) | 4
O=C(/C=N/O)NCC1CCNCC1 | -8
CC(c1ccccc1)N1C(=O)OC(C)(C)C1(C)O (stereo not given) | -5
CC(=O)N(C(C)=O)c1ccccc1-c1ccccc1 | -15

Another view of 9 compounds above:
| SMILES | MbtI inh |
| --- | --- |
| O=C1CN(S(=O)(=O)CCOc2ccccc2)CC(=O)N1CCc1ccccc1 | -7 |
| CC(C)CSc1ncnc2c1sc1nc3c(cc12)COC(C)(C)C3 | -9 |
| COC(=NC1CCCCC1)C(O)c1c[nH]c2ccccc12 (stereo not given) | 3 |
| O=C(CSCc1ccccc1Cl)NC1CCCC1 | -16 |
| O=C(Cc1cccs1)Nc1cccc(C(=O)O)c1 | -18 |
| CC(=O)Oc1ccc2oc(-c3ccccc3)c(C(N)=O)c2c1 | 48 |
| Cc1cc2ncc(-c3ccccc3)nc2cc1C | -12 |
| OCc1cnn(-c2ccccc2)c1-n1cccc1 | -20 |
| CCC(=O)N1CC(=O)Nc2ccc(F)cc2C1c1ccccc1 (stereo not given) | 4 |

The listing continues.
SMILES | MbtI inh
CCn1c2ccccc2c2cc(CN3CCC(N4CCN(CCO)CC4)CC3)ccc21 | -7
Cc1cc(C)cc(CC(C(=O)O)C(C)C(=O)O)c1 (stereo not given) | -8
CC1CCCN(C(=O)c2ccc3c(c2)C(=O)N(CCC2=CCCCC2)C3=O)C1 (stereo not given) | -6
O=S(=O)(c1cccs1)N1CCCCCC1 | 13
CC1(C)CC(N(CCCO)C(=O)c2ccccc2)CCO1 (stereo not given) | -13
O=C(Nc1cccc(-c2nc3ccccc3o2)c1)c1cc(=O)c2ccccc2o1 | -11
CN(C)CCN1C(=O)C2C3c4ccccc4C(c4ccccc43)C2C1=O (stereo not given) | -10
